# Biofilm kill mix – mixture kills Candida albicans biofilm cells; inhibition, % at 7.6 µM; C. albicans biofilm persisters + clotrimazole, fluorescence viability; primary screen in compound mixtures of four per well; 120,000 compounds, 0.02% hits;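 active = inhibition above 30.3% in the primary screen of four-compound pools, then above 30% when the compound was retested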;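 also: compounds exposed to preformed 24 h biofilms for 48 h; the number belongs to the whole pool; some results filed as inactive read as strong as hits; inactives centre near 12; 0% = biofilm with clotrimazole alone and 100% = kill control; retested singly at about 60 µM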
#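 System: C. albicans CAF4-2 wild-type biofilms; Medium: RPMI/MOPS medium, pH 7.0; Reagent: Clotrimazole, 50 µg/mL; Times: biofilm formation 24 h, compound exposure 48 h, 37 °C; Detection: 2-h Alamar Blue fluorescence, 535/590 nm excitation/emission; Evaluation: percent inhibition of biofilm viability.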
# The depositor's hits bear a star. The list is partial, so the mix of outcomes need not match the whole.
SMILES,Biofilm kill mix
Cc1ccccc1NC(=O)Cn1c(=O)n(CC2CCCO2)c(=O)c2ccccc21 (centres undefined),20
CC(=O)Nc1ccc(Sc2ccccc2C(=O)N2CCCC2)cn1,2
Cc1ccc(CN(CC(=O)NC(C)(C)C)C(=O)CNC(=O)c2cccs2)cc1,10
COc1ccc(OC)c(CC(NC(C)=O)C(=O)NC2CCN(c3nnnn3-c3ccccc3)CC2)c1 (centres undefined),13
O=C(O)c1cccc(S(=O)(=O)Nc2ccc(O)c(Sc3nc4ccccc4s3)c2)c1,-2
C=CCn1c(CSCc2ccc(Cl)cc2Cl)nnc1SCC(=O)Nc1ccc(C(=O)O)cc1,15
Cc1ccccc1OCCn1cc(C(=O)O)c2ccccc21,18
COc1ccc(CCNC2=CC(=O)N(c3ccc(F)cc3)C2=O)cc1,5
O=C(O)COc1cccc(NC(=O)c2ccccc2)c1,16
CCOC(=O)c1ccc(N2C(=O)CC(N3CCN(C(=O)c4ccccc4)CC3)C2=O)cc1 (centres undefined),15
Cc1ccc(NC(=O)CCN2C(=O)CSC2=O)cc1,8
O=C(N/N=C\c1c(O)ccc2ccccc12)c1ccc(Cn2cccn2)o1,11
Cc1ccc(C2=[N+]([O-])C(C)(C)N(O)C2(C)C)cc1,15
COC(=O)CCn1c(C)cc(C(=O)COc2ccccc2C(N)=O)c1C,15
COC(=O)/C=C/C(=O)N1CCN(c2ccccc2)CC1,6
CN(C)CCCN(C(=O)c1sc2ccccc2c1Cl)c1nc2c(F)cccc2s1,13
CCCCC(CC)CNC(=O)c1cc2ccccc2c(=O)o1 (centres undefined),2
CC(=O)N1CCN(C(=S)NC(=O)C23CC4CC(CC(C4)C2)C3)CC1,20
O=C(CN1C(=O)NC2(CCCCC2)C1=O)Nc1ccc2c(c1)CCC2,4
Cc1ccc(S(=O)(=O)c2ccc(Cl)cc2)cc1S(=O)(=O)NC(C(=O)O)C(C)C (centres undefined),8

# Reprinted from above, six compounds:
SMILES,Biofilm kill mix
COC(=O)/C=C/C(=O)N1CCN(c2ccccc2)CC1,6
CN(C)CCCN(C(=O)c1sc2ccccc2c1Cl)c1nc2c(F)cccc2s1,13
CCCCC(CC)CNC(=O)c1cc2ccccc2c(=O)o1 (centres undefined),2
CC(=O)N1CCN(C(=S)NC(=O)C23CC4CC(CC(C4)C2)C3)CC1,20
O=C(CN1C(=O)NC2(CCCCC2)C1=O)Nc1ccc2c(c1)CCC2,4
Cc1ccc(S(=O)(=O)c2ccc(Cl)cc2)cc1S(=O)(=O)NC(C(=O)O)C(C)C (centres undefined),8

# Remaining list, next part.
SMILES,Biofilm kill mix
Cc1ccn2c(Nc3ccccc3C)c(-c3ccncc3)nc2c1,5
CN(C)c1ccc(NS(=O)(=O)c2cccc(Cl)c2)cc1,3
Cc1ccsc1/C=N/N=C1\C(=O)Nc2ccccc21,22
COc1ccccc1-c1c(C#N)c(N)nc2c1CCc1ccccc1-2,13
COC(=O)c1cnn(-c2ccccc2)c1N,15
COc1ccc(COc2ccccc2C(=O)NCc2ccccc2)cc1F,13
CC(NC(=O)c1ccc(Br)o1)c1ccccc1 (centres undefined),21
COc1ccc(Cn2c(=O)[nH]c3cc(C(=O)NCCCOC(C)C)ccc3c2=O)cc1,2
CSc1nc2ccc(NC(=O)c3c(F)cccc3F)cc2s1,6
O=C(c1cccc2ccccc12)C1CCCN(C(=O)C2CCOCC2)C1 (centres undefined),29
C/C(=N\NC(=O)CCCC(=O)O)c1c(-c2ccccc2)c2cc(Cl)ccc2[nH]c1=O,-3
Cc1nnc2ccc(-c3cccc(NS(C)(=O)=O)c3)nn12,4
O=C(NN1CCCCC1)c1ccccc1,2
Cc1cc([N+](=O)[O-])ccc1NC(=O)c1ccc(NC(=O)C(C)C)cc1,11
CC(C)=N/N=C(\c1cccc([N+](=O)[O-])c1)C12CN3CN(CN(C3)C1)C2,13
COc1ccc(C(=O)NC(C(=O)NCC2CCCO2)C(C)C)cc1 (centres undefined),9
Cc1c(-c2ccc(Br)cc2)[n+](=O)c2c(n1[O-])CCCC2,19
COc1ccc(-c2csc(NC(=O)c3ccc(N4C(=O)CCC4=O)cc3)n2)cc1,19
CC(C)c1ccc(N(CC(=O)NCC2CCCO2)C(=O)Cn2nnc(-c3cccs3)n2)cc1 (centres undefined),12
COc1ccccc1Nc1ccc(C(=O)O)cc1[N+](=O)[O-],10
Cc1cc(C)c2cc(CN(CCO)C(=O)NC3CCCCC3)c(=O)[nH]c2c1,12
C=C(C)C(=O)NNc1ccccc1,7
Cc1ccc2[nH]c(=O)c(CNS(=O)(=O)c3ccccc3)c(-c3ccccc3)c2c1,26
CCOC(=O)C1(Cc2cccc(F)c2)CCN(CC2CC2)CC1,11
CCN(CC)c1ccc(S(=O)(=O)N2CCOCC2)cc1NC(=O)CN1CCc2ccccc2C1,16
CCCOc1ccc(N2C(=O)CC(N(CCc3ccc(OC)cc3)C(=O)c3ccccc3)C2=O)cc1 (centres undefined),15
CCOc1ccccc1NS(=O)(=O)c1cn(C)nc1C,12
O=C(CC1C(=O)NCCN1Cc1ccc(F)cc1)NCCCn1cccn1 (centres undefined),21
Nc1ccc(C(=O)Nc2cccc(N)c2)cc1,15
Cc1ccc(OCC(=O)NCC2CCCO2)c(C)c1 (centres undefined),14
O=C(N/N=C/c1ccc(OC2CSC2)cc1)c1ccc(CN2CCOCC2)cc1,10
COc1ccc(C2/C=C\CNCC(=O)N2Cc2ccc(F)cc2)cc1 (centres undefined),18
CC(=O)N(Cc1ccc(F)cc1)c1cccc(C)c1C,11
O=C(Nc1ccccc1N1CCCCC1)c1ncoc1-c1cccc(F)c1,13
CCC(=O)NNc1nc2c(Cl)cccc2s1,6
Cc1noc(NC(=O)c2c(-c3c(Cl)cccc3Cl)noc2C)c1[N+](=O)[O-],19
COc1ccc(/C=N/NC(=O)CCNc2n[nH]c(=O)[nH]c2=O)c(OC)c1,23
COc1ccc(OCC(=O)Nc2ccc3oc(-c4ccncc4)nc3c2)cc1,2
Brc1ccc(C2=CSC3=NCCN23)cc1,11
CCOC(=O)c1sc(NC(=O)CSc2nc3ccccc3o2)c(C(=O)OCC)c1C,19
Cc1sc2nc(COC(=O)CNC(=O)c3ccc(C(C)(C)C)cc3)[nH]c(=O)c2c1C,19
COc1ccccc1CCNS(=O)(=O)c1cn(C)c(=O)n(C)c1=O,19
CCN(CC)S(=O)(=O)c1ccc(C)c(NC(=O)COc2ccc(Cl)cc2Br)c1,10
CCCCn1c(=O)c(CCC(=O)OC(C)C(=O)Nc2cccc(Cl)c2Cl)nc2ccccc21 (centres undefined),10
Cc1ccc(NC(=O)Cn2ccsc2=N)cc1S(=O)(=O)N(C)C,18
O=c1cc(NS(=O)(=O)c2ccccc2)nc(SCc2ccccc2Cl)[nH]1,25
COc1cccc(NC(C)C(=O)Nc2cc([N+](=O)[O-])ccc2Cl)c1 (centres undefined),22
Cc1ccc(-c2cc(C(=O)NCCCn3ccnc3)no2)cc1,20
CN(CCC1CCOCC1)C(=O)CC1C(=O)NCCN1Cc1ccoc1 (centres undefined),9
O=C(COC(=O)c1ccc(Br)cc1)NCCN1C(=O)CSC1=O,12
CCC(C(=O)NC1CCCCC1)n1c(SCc2cccc(C)c2)nc2ccncc21 (centres undefined),4
NS(=O)(=O)c1ccc(NC(=O)C2C3C=CC(C3)C2C(=O)O)cc1 (centres undefined),26
COc1ccc(-c2csc(NC(=O)CC(C)C)n2)cc1,-3
CC1(C)Cc2c(sc(NC(=O)c3ccccc3Cl)c2C(=O)O)CO1,19
CCC(C)NC(=O)Cn1c(=O)sc2ccccc21 (centres undefined),2
Cn1c(=O)cc(SCC(=O)NCC2CCCO2)c2ccc(Cl)cc21 (centres undefined),12
CCOc1ccc(C(=O)N2CCn3c2nc2ccccc23)cc1,0
COc1ccc(NC(=S)NC23CN4CN(CN(C4)C2)C3)c(OC)c1,15
CC1CCCC(C)N1C(=O)COc1ccc([N+](=O)[O-])cc1Cl (centres undefined),2
Cc1cccc(C)c1NC(=O)CS(=O)CC(=O)NCC1OCCc2ccccc21 (centres undefined),5
# Next entries:
SMILES,Biofilm kill mix
CC(C)C(c1nnnn1Cc1cccs1)N1CCN(C(=O)c2ccco2)CC1 (centres undefined),15
C=CCOc1c(CNC2CCCC2)cc(Cl)cc1OC,3
COC(=O)COc1ccccc1C(=O)Nc1ccc(OC)cc1,17
O=C(NCc1ccccc1)c1ccc2nnsc2c1,12
COc1ccc(-n2cc(C#N)c(=O)n(Cc3ccc(F)cc3)c2=O)cc1,4
CCNC(=S)Nc1ccc(Cl)cc1,10
Cc1ccc(C(=O)N/N=C(\CC(C)C)c2ccccc2)cc1,15
CCOC(=O)/C(=C\c1ccc(Cl)cc1)c1nc2sc(C)c(C)c2c(=O)[nH]1,18
O=C(c1ccc(S(=O)(=O)c2ccc(F)cc2)c([N+](=O)[O-])c1)N1CCCCCC1,16
CCc1ccccc1NC(=O)CN(C)C(=O)CSc1nn(-c2ccc(F)cc2)c(=S)s1,21
CCC(CC)NC(=O)c1ccc(Cl)cc1,17
CCN(CC)S(=O)(=O)c1ccc(NS(=O)(=O)CC23CCC(CC2=O)C3(C)C)cc1 (centres undefined),13
O=C(O)c1ccc([N+](=O)[O-])c(CS(=O)(=O)c2ccc(Cl)cc2)c1,11
Cc1cc(/C=C(\C#N)C(=O)NCc2cccs2)c(C)[nH]1,20
O=C1COc2ccc(C(=O)COC(=O)c3cnc(Cl)c(Cl)c3)cc2N1,1
CCn1nc(C)c(Br)c1-c1nc(CS(=O)(=O)c2ccsc2)no1,18
O=C(NCCN1CCOCC1)C(=O)NCc1ccc2c(c1)OCO2,14
CCC(C(=O)O)N1C(=O)/C(=C/C(C)=C/c2ccccc2)SC1=S (centres undefined),24
CCOc1ccc(NC(=O)CSc2nnc(Cn3cnc4ccccc43)n2C)cc1,20
COCCN(CC(=O)NCC1CCCO1)C(=O)CCC(=O)Nc1ccccn1 (centres undefined),16
Cc1nonc1CN(C)C(=O)c1ccc(OC2CCN(C(=O)c3cccnc3)CC2)cc1,12
Cc1onc(-c2c(Cl)cccc2Cl)c1C(=O)NC(=S)Nc1sc2c(c1C(N)=O)CCC(C)C2 (centres undefined),11
C=CCn1c(C(C)C)nc2ccccc21,19
O=C(CNCc1ccco1)Nc1cccc(S(=O)(=O)N2CCCCC2)c1,8
Cn1c(N2CCN(C(=O)NC34CC5CC(CC(C5)C3)C4)CC2)nc2ccccc21,20
COC(=O)c1ccc(NC(=O)c2cccc(C)c2[N+](=O)[O-])cc1,6
CC(C)c1ccc(C(=O)NCc2ccc(Cl)cc2)cc1,3
Clc1cccc(Sc2ccc(-c3ccccn3)s2)c1,12
FC(F)Oc1ccccc1NC(=S)Nc1cccnc1,7
COc1cccc(OCCCn2cc(/C=C3/C(=N)N4C=C(C)SC4=NC3=O)c3ccccc32)c1,17
CC1CC1c1ccc(/C=C(\C#N)C(=O)Nc2cccc(Cl)c2Cl)o1 (centres undefined),21
O=C(c1ccc(CNS(=O)(=O)c2cccc(Cl)c2)cc1)N1CCCC1,17
CCOC(=O)c1cc2c(C)nn(-c3ccccc3)c2s1,8
O=C(CCCn1cnc([N+](=O)[O-])n1)Nc1ccc(Cl)cc1Cl,21
Cc1nc(N2CCN(c3ccccn3)CC2)c2c(C)c(C(=O)Nc3ccccc3F)sc2n1,21
Cc1nc(NC(=S)Nc2ccccc2)sc1C,8
CCCOc1ccc(S(=O)(=O)N2CCCC2)cc1[N+](=O)[O-],18
O=C(CSCc1ccccc1)Nc1cc([N+](=O)[O-])ccc1F,19
CCC(=O)Nc1ccc(NC(=S)NC(=O)Cc2ccccc2)cc1,7
Cc1ccc(S(=O)(=O)N2CCN=C2SCc2cccnc2)cc1,18
COc1ccc(O)c(C=Nc2cc(NC(C)=O)c(Cl)cc2Cl)c1,-10
CCN(CC(=O)NCc1ccc(F)cc1)C(=O)/C=C/c1cccs1,-3
C/C=C\C=C/C(=O)Nc1cccc(C2=NOC3(C2)C[C@@H](C(N)=O)N(C(=O)c2ccccc2)C3)c1 (some centres undefined),18
COc1ccccc1C1C(C#N)=C(N)Oc2c1oc(CO)cc2=O (centres undefined),20
COc1ccc(NC(=S)c2ccncc2)cc1,20
O=C(Nc1ccccc1C(=O)N1CCCC1)c1ccc(Cl)c([N+](=O)[O-])c1,22
CCOC(=O)N/N=C/c1cc(C)n(-c2ccccc2)c1C,9
CCOC(=O)c1c(NC(=O)CSc2c[nH]c3ccccc23)sc2c1CCCC2,6
COc1ccc(-c2c[n+](CC(=O)c3cccs3)c3n2CCC3)cc1,29
NC(=O)COC(=O)c1ccccc1SCC(=O)NC1CCCCCC1,6
COc1cccc(/C=N/Nc2ncnc3c2[nH]c2ccc(C)cc23)c1OC,-5

# Quoted at random: 7 compounds from above.
SMILES,Biofilm kill mix
COc1ccccc1C1C(C#N)=C(N)Oc2c1oc(CO)cc2=O (centres undefined),20
COc1ccc(O)c(C=Nc2cc(NC(C)=O)c(Cl)cc2Cl)c1,-10
COc1ccc(NC(=S)c2ccncc2)cc1,20
COc1cccc(/C=N/Nc2ncnc3c2[nH]c2ccc(C)cc23)c1OC,-5
NC(=O)COC(=O)c1ccccc1SCC(=O)NC1CCCCCC1,6
CCOC(=O)N/N=C/c1cc(C)n(-c2ccccc2)c1C,9
C/C=C\C=C/C(=O)Nc1cccc(C2=NOC3(C2)C[C@@H](C(N)=O)N(C(=O)c2ccccc2)C3)c1 (some centres undefined),18
